High-throughput results (PubChem BioAssay)
TRPML1 ag – activates the human TRPML1 channel; TRPML1-expressing cells, Ca2+ dye fluorescence, FDSS; host cell line not named in the record; reference of the full effect not given here; AID 624414; activation, % (test concentration not listed); Q9GZU1; 0.12% of 410,000 active; in the data active = activation above about 50%; inconclusive = about 30% to 50%; inactive = below about 30%; also: 0% is about no effect; the text of the record puts the active cut at 80%
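Calcium fluorescence on an FDSS kinetic reader gave the read-out. Tet-induced TRPML1-DL cells were plated overnight, dye-loaded (Ca8 with quencher, 45-90 min, room temperature, dark), then read 110 s after compound addition, and again 110 s after 4uM final 54-4 (EC80).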
CtBP-E1A blk – CtBP/E1A binding inhibition. AlphaScreen GST-E1A/His-CtBP binding, 1536-well; hits give low values; control for the full effect not named in the record. activity change, % (test concentration not listed). 0.49% of 340,000 active. AID 651724; in the data active means activity change below about -65%; inconclusive means about -30% to -65%; inactive means above about -30%; also: % is scaled to controls: 0 for no effect and ±100 for the full control effect; compound concentration not given in the record
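GST-E1A and His-tagged CtBP (125 nM each as 5X stock) were preincubated with pin-transferred compound for 2 h at 37 °C in the dark, then glutathione donor and nickel acceptor beads were added for 1 h before AlphaScreen reading.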
D2 agonist – activates the human D2 dopamine receptor; activation, % (concentration not given with the values); DiscoveRx PathHunter D2 beta-arrestin, luminescence, 90 min; 100% = 57 uM dopamine signal; 0.084% of 360,000 active; AID 624465; in the data active = activation above about 40%; inconclusive = about 15% to 40%; inactive = below about 15%; also: compound concentration not given in the record; the text of the record calls up to 30% inactive
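DiscoveRx PathHunter D2 beta-arrestin cells (2,100/well) attached overnight, then compound-stimulated 90 min at 37 C in HBSS/10 mM HEPES/0.1% Tween-20 buffer; beta-galactosidase complementation read by luminescence after 1 h at ambient temperature. Dopamine 57 uM final (EC100) as control.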
Six1-Eya2 inh – inhibitors of human Six1/Eya2 interaction. AlphaScreen GST-Six1/His-Eya2 binding, biochemical; hits give low values; control for the full effect not named in the record. Q15475+O00167. activity change, % (concentration not given with the values). 0.56% of 360,000 active; in the data active = activity change below about -65%; inconclusive = about -30% to -65%; inactive = above about -30%; also: % is scaled to controls: 0 for no effect and ±100 for the full control effect
Target sequence (O00167 whole entry, looked up): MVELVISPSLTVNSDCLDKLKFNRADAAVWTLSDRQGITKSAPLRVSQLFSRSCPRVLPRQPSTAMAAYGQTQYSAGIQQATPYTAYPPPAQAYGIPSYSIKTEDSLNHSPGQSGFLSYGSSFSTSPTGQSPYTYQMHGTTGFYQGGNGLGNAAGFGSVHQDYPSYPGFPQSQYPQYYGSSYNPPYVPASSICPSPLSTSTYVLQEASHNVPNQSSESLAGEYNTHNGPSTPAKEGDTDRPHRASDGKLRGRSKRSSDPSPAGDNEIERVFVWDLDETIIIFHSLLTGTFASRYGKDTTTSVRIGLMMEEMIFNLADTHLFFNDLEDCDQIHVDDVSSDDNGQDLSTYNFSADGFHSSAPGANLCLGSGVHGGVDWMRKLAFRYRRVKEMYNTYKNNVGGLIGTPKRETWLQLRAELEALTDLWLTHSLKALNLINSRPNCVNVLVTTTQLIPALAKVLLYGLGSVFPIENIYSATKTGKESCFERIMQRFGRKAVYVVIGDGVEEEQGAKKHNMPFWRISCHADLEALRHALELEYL
Target sequence (Q15475 whole entry, looked up): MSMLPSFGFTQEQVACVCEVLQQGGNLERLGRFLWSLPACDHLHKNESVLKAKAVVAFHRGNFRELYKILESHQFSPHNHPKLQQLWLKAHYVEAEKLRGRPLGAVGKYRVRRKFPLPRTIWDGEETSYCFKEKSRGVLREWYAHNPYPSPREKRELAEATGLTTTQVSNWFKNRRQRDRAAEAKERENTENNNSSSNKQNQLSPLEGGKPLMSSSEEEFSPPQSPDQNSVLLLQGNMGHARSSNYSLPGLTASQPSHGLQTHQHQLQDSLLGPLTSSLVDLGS
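Homogeneous AlphaScreen proximity assay pairing GST-Six1 with His-tagged Eya2 (added as 5X mix: 250 nM and 500 nM) in 50 mM Tris pH 8.0, 300 mM NaCl, 1 mM TCEP. Glutathione donor and nickel acceptor beads; 1 h, 37 °C, dark.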
PINK1 expr mod – modulators of PINK1 expression; PINK1 immunofluorescence, high-content cytometry, 24 h; Potency, µM (highest dose often 76.6 µM), inactives show top-dose activation (PINK1 increase), usual class: activators; 0.2% of 410,000 active; AID 624263; active = well fitted activation curve with a large enough effect; inconclusive = small, poorly fitted or top-dose-only effect; inactive = flat fitted curve, though single readings scatter; cell line not stated here;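 also: potency is read from the fitted curve at half-maximal effect; % of control where 0% means no effect; nearly all actives have a fitted effect of over 65% in size; a mitochondrial uncoupler was the plate control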
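Readout is PINK1 immunofluorescence, quantified alongside mitochondrial, cell and nuclear markers by laser-scanning microplate cytometry. Cells from a stable line were exposed to compound titrations (5 concentrations) for 24 hours, with CCCP controls.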
D2 potentiator – positive allosteric modulators of human D2 dopamine receptor. P14416. DiscoveRx D2 beta-arrestin cells, luminescence, 90 min; 100% = 57 uM dopamine signal. potentiation, % (test concentration not listed). 0.23% of 360,000 active. AID 624464; active = potentiation of 50% or more; inconclusive = 30% to 50%; inactive = 30% or less;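 also: compound concentration not given in the record; tested on top of an EC20 dose of dopamine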
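PathHunter D2 cells, attached overnight at 37 deg C, received compound in DMSO plus dopamine at EC20 (50 nM final) for 90 min at 37 deg C. Beta-arrestin recruitment was read as luminescence after 1 h with detection reagent at ambient temperature.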
* = called active by the depositor; & = joins results of further samples; [ ] = dose if it differs, or a comment.

Screening CC(C)c1nc2ccc(C(=O)O)cc2[nH]1 returned TRPML1 ag 0.5, CtBP-E1A blk -5.0, D2 agonist -1.8, Six1-Eya2 inh -0.1 and D2 potentiator -1.1.
For CCc1cccc(C)c1NC(=O)C1=C(C(=O)O)CCCC1 the results were TRPML1 ag 2.2, CtBP-E1A blk 7.7, D2 agonist -1.5, Six1-Eya2 inh 2.0, PINK1 expr mod 7.3%[38.3 µM] and D2 potentiator -6.6.
`Cc1ccc(C)c(NS(=O)(=O)c2ccc(OCC(=O)N3CCOCC3)cc2)c1` gave TRPML1 ag -0.2, CtBP-E1A blk -0.8, D2 agonist -3.8, Six1-Eya2 inh 2.9, PINK1 expr mod 0.1% and D2 potentiator -7.7.
`Cc1noc(C)c1S(=O)(=O)N1CCC(C(=O)N(C)Cc2ccccc2)CC1` gave TRPML1 ag -0.3, CtBP-E1A blk 0.1, D2 agonist -4.1, Six1-Eya2 inh 2.5, PINK1 expr mod -0.3% and D2 potentiator 0.4.
Screening O=C(N/N=C/c1cc(Br)c(Br)o1)c1cccnc1 returned TRPML1 ag 0.5, CtBP-E1A blk -19.7, D2 agonist 3.3, Six1-Eya2 inh -27.8, PINK1 expr mod 9.1% and D2 potentiator -0.3.
For Cc1ccc(C(C(=O)NC2CCCC2)N(Cc2ccco2)C(=O)CCC(=O)Nc2ccccn2)cc1 (stereo not given) the results were TRPML1 ag 0.6, CtBP-E1A blk -1.6, D2 agonist -4.3, Six1-Eya2 inh -0.5, PINK1 expr mod 4.2% and D2 potentiator -8.4.
For CCC(=O)c1ccc(OCC(=O)NC2(C#N)CCCCC2)cc1 the results were TRPML1 ag -0.5, CtBP-E1A blk 0.0, D2 agonist 0.8, Six1-Eya2 inh 5.1, PINK1 expr mod 1.5% and D2 potentiator -12.1.
O=C(NCCCn1ccnc1)c1cc(-c2ccc3c(c2)OCO3)on1 was read as TRPML1 ag 0.0, CtBP-E1A blk -16.7, D2 agonist 0.3, Six1-Eya2 inh -15.4, PINK1 expr mod -0.7%[38.3 µM] and D2 potentiator 0.6.
`Cc1ccc(NC(=O)CCC(=O)NNC(=O)CCc2ccccc2)c(C)c1` gave TRPML1 ag 0.6, CtBP-E1A blk 9.9, D2 agonist -2.4, Six1-Eya2 inh 2.6, PINK1 expr mod -0.8% and D2 potentiator -6.2.
`O=C(O)c1cc(=O)c2c(OCC(O)COc3cccc4oc(C(=O)O)cc(=O)c34)cccc2o1` gave TRPML1 ag 0.3, CtBP-E1A blk -8.2, D2 agonist -6.2, Six1-Eya2 inh 5.2, PINK1 expr mod 0.1% and D2 potentiator -9.5.
Screening COc1ccc(/C=C2\SC(=O)N(CC(=O)NCCC(C)C)C2=O)cc1OC returned TRPML1 ag -0.6, CtBP-E1A blk 0.0, D2 agonist -7.2, Six1-Eya2 inh -4.5, PINK1 expr mod -1.1% and D2 potentiator -4.3.
Screening Cc1c(C(=O)N2CCc3ccccc32)cnn1C returned TRPML1 ag -0.7, CtBP-E1A blk 5.8, D2 agonist -3.8, Six1-Eya2 inh 2.0, PINK1 expr mod 0.4% and D2 potentiator -5.3.
OCCOCCNc1ncnc2c1cnn2-c1ccc(Cl)cc1 was read as TRPML1 ag -0.3, CtBP-E1A blk 4.6, D2 agonist -4.2, Six1-Eya2 inh inconclusive, PINK1 expr mod 0.9% and D2 potentiator -0.6.
Screening CCOC(=O)c1[nH]c2cc(OC)c(OC)cc2c1NC(=O)c1ccc2c(c1)OCO2 returned TRPML1 ag -0.6, CtBP-E1A blk -8.7, D2 agonist 3.2, Six1-Eya2 inh -2.6, PINK1 expr mod 17.5%[38.3 µM] and D2 potentiator -1.2.
CC(C)(O)C#Cc1ccc(C(=O)NCCC(=O)O)s1 was read as TRPML1 ag 2.3, CtBP-E1A blk 6.8, D2 agonist 1.2, Six1-Eya2 inh 4.5, PINK1 expr mod 1.9% and D2 potentiator -3.3.
For COCCNC(=O)CSCc1c(F)cccc1Cl the results were TRPML1 ag -0.1, CtBP-E1A blk 19.1, D2 agonist -0.5, Six1-Eya2 inh 9.3, PINK1 expr mod 1.5%[38.3 µM] and D2 potentiator -7.8.
For Cc1cccn2c(=O)nc(SCC(=O)NCc3ccccc3)nc12 the results were TRPML1 ag -0.1, CtBP-E1A blk 10.0, D2 agonist 0.1, Six1-Eya2 inh -3.0, PINK1 expr mod 11.4% and D2 potentiator -5.3.
Screening Cc1ccc(N2C(=O)CN(Cc3sccc3C)C2=S)cc1C returned TRPML1 ag 0.2, CtBP-E1A blk 1.1, D2 agonist -2.2, Six1-Eya2 inh -0.3, PINK1 expr mod 13.2% and D2 potentiator -12.4.
O=C(c1ccc2c(c1)OCO2)N(c1ccc(Cl)cc1)C1C=CS(=O)(=O)C1 (stereo not given) was read as TRPML1 ag 1.4, CtBP-E1A blk 7.5, D2 agonist -0.6, Six1-Eya2 inh 3.5, PINK1 expr mod 4.4%[38.3 µM] and D2 potentiator 3.9.
Screening OCC[C@H]1C[C@@H](O)[C@H](O)[C@]2(OCCCc3ccccc32)O1 returned TRPML1 ag -1.0, CtBP-E1A blk 3.3, D2 agonist -0.8, Six1-Eya2 inh 6.2, PINK1 expr mod 0.2% and D2 potentiator -6.5.
CC(C)c1nc2sc3c(NCc4ccccc4)ncnc3c2c2c1COC(C)(C)C2 was read as TRPML1 ag 0.6, CtBP-E1A blk 9.5, D2 agonist -7.0, Six1-Eya2 inh 13.0, PINK1 expr mod 4.9% and D2 potentiator -8.0.
CCn1c(SCC(=O)Nc2ccc(OC)cc2)nc2c(c1=O)SCC2 was read as TRPML1 ag -0.7, CtBP-E1A blk -0.3, D2 agonist -1.8, Six1-Eya2 inh 5.9, PINK1 expr mod 2.4% and D2 potentiator -1.4.
`CCn1c(=O)c2cc(C(=O)N3CCOCC3)sc2c2ccccc21` gave TRPML1 ag -0.9, CtBP-E1A blk -2.7, D2 agonist -3.8, Six1-Eya2 inh 1.2, PINK1 expr mod -0.6% and D2 potentiator -4.2.
Screening COc1cc(/C=C/CNC[C@H]2O[C@@H](n3cc(C)c(=O)[nH]c3=O)C[C@@H]2O)ccc1O returned TRPML1 ag 0.8, CtBP-E1A blk -21.0, D2 agonist -2.1, Six1-Eya2 inh 6.9, PINK1 expr mod 0.5% and D2 potentiator -2.1.

Random excerpt: 2 compounds from above.
Screening OCC[C@H]1C[C@@H](O)[C@H](O)[C@]2(OCCCc3ccccc32)O1 returned TRPML1 ag -1.0, CtBP-E1A blk 3.3, D2 agonist -0.8, Six1-Eya2 inh 6.2, PINK1 expr mod 0.2% and D2 potentiator -6.5.
CCn1c(SCC(=O)Nc2ccc(OC)cc2)nc2c(c1=O)SCC2 was read as TRPML1 ag -0.7, CtBP-E1A blk -0.3, D2 agonist -1.8, Six1-Eya2 inh 5.9, PINK1 expr mod 2.4% and D2 potentiator -1.4.

The list goes on:
O=C(CNC(=O)c1ccccc1)NCC(=O)OCc1ccc(Cl)cc1 was read as TRPML1 ag 0.4, CtBP-E1A blk 0.2, D2 agonist -0.1, Six1-Eya2 inh 2.6, PINK1 expr mod 3.1% and D2 potentiator -1.4.
CC1CN(S(=O)(=O)c2ccc(C(=O)Nc3ccc(S(=O)(=O)Nc4nccs4)cc3)cc2)CC(C)O1 (stereo not given) was read as TRPML1 ag 0.0, CtBP-E1A blk 0.3, D2 agonist -3.1, Six1-Eya2 inh -1.6, PINK1 expr mod 1.9% and D2 potentiator -4.8.
CC(C)(C)CC(=O)Nc1cc2c3c(c1)CC(=O)N3CCC2 was read as TRPML1 ag 0.1, CtBP-E1A blk -21.1, D2 agonist -2.6, Six1-Eya2 inh 2.3, PINK1 expr mod 2.5% and D2 potentiator -6.3.
CCC(C)[C@H]1COCCS(=O)(=O)N1Cc1ccc(Cl)cc1Cl (stereo not given in full) was read as TRPML1 ag 1.4&-0.5, CtBP-E1A blk -2.7, D2 agonist -7.8, Six1-Eya2 inh 13.2, PINK1 expr mod 5.1% and D2 potentiator -3.2.
For Cc1cnc(C(=O)OCC(=O)Nc2ccc(Br)c(C)c2)cn1 the results were TRPML1 ag -0.1, D2 agonist -4.2, Six1-Eya2 inh 1.5, PINK1 expr mod 0.2% and D2 potentiator -4.2.
Cc1ccc(-c2csc3n[nH]c(=S)n23)cc1 was read as TRPML1 ag -0.8&1.2, CtBP-E1A blk -0.4, D2 agonist 4.7, Six1-Eya2 inh 4.6, PINK1 expr mod 3.7%&-1.7% and D2 potentiator -0.3.
Screening CSC1=Nc2sc3c(c2C2=NCCN12)CC(C)(C)OC3 returned TRPML1 ag -0.5, D2 agonist -3.8, Six1-Eya2 inh -2.3, PINK1 expr mod 0.1% and D2 potentiator -8.1.
`CCCCCCCCN1[C@@H](CC(C)=O)c2cc(C(F)(F)F)ccc2S1(=O)=O` gave TRPML1 ag 1.5&3.5, D2 agonist -1.2, Six1-Eya2 inh 31.8, PINK1 expr mod 3.0% and D2 potentiator -7.3.
Screening CC(CN1C(C)CCCC1C)OC(=O)c1ccc(Cl)cc1Cl (stereo not given) returned TRPML1 ag -0.4, CtBP-E1A blk -3.6, D2 agonist -1.8, Six1-Eya2 inh -8.5, PINK1 expr mod 5.0% and D2 potentiator -6.9.
For Cc1cnc(C(=O)Nc2nnc(C)s2)cn1 the results were TRPML1 ag 0.3, CtBP-E1A blk -12.5, D2 agonist -3.3, Six1-Eya2 inh -16.2, PINK1 expr mod -3.5% and D2 potentiator 2.1.
For Cn1cnnc1SCc1ccc(C(=O)N=Nc2c(O)n(C)c3ccccc23)cc1 the results were TRPML1 ag 1.6, CtBP-E1A blk -3.7, D2 agonist -0.2, Six1-Eya2 inh -11.3, PINK1 expr mod 2.3% and D2 potentiator -5.5.
Screening CCCCOc1ccc(C(=O)OCC(=O)NC2CCCC2)cc1 returned TRPML1 ag -0.6, CtBP-E1A blk -1.6, D2 agonist 1.8, Six1-Eya2 inh 11.4, PINK1 expr mod -0.5% and D2 potentiator -0.3.
Screening CC(Oc1ccccc1F)C(=O)NNC(=O)C1CC(=O)N(c2ccc3c(c2)OCCO3)C1 (stereo not given) returned TRPML1 ag -0.6, CtBP-E1A blk -0.5, D2 agonist -3.4, Six1-Eya2 inh 0.8, PINK1 expr mod -1.4% and D2 potentiator -2.1.
Screening Cc1cccc(NC(=O)C2CCN(S(=O)(=O)c3cccc4nonc34)CC2)c1 returned TRPML1 ag 0.1, CtBP-E1A blk -5.0, D2 agonist 4.2, Six1-Eya2 inh 0.3, PINK1 expr mod 2.3% and D2 potentiator -1.7.
For CCOc1ccccc1C(=O)N1CCN=C1SCc1cccnc1 the results were TRPML1 ag -0.7, CtBP-E1A blk 5.6, D2 agonist -4.4, Six1-Eya2 inh 0.0, PINK1 expr mod -0.5% and D2 potentiator -16.2.
Screening COc1ccc(/C=N/N2C(=O)CSC2=S)cc1 returned TRPML1 ag 1.7, CtBP-E1A blk 2.6, D2 agonist 8.1, Six1-Eya2 inh -17.6, PINK1 expr mod -0.7%[38.3 µM] and D2 potentiator 11.4.
